# From PubChem
# RE007 growth inh = less growth of the S. pombe RE007 Vpr strain; S. pombe RE007 Vpr strain, BacTiter-Glo ATP luminescence, 24 h; control for the full effect not named in the record; Potency, µM (top dose mostly 92.2 µM), without a hit: at the highest dose activity change, negative = less growth; 0.21% of 360,000 active; AID 651644; active = well fitted falling curve with a large enough effect; inconclusive = small, poorly fitted or top-dose-only effect; inactive = no such curve, though single readings can be large or run the other way;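 further: nearly all actives have a fitted effect of over 50% in size; the assay follows cell death caused by Vpr and the record does not say whether a fall means rescue or toxicity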
#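 Fission yeast strain RE007, carrying one chromosomally integrated HIV-1 vpr copy, was seeded at OD 0.01 in PMG+AL medium with 23 nL pinned compound. After 24 h at 30 °C and 99% humidity, viability was read by BacTiter-Glo luminescence.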
# StopGo reporter = FMDV 2A StopGo reporter, luciferase signal; AID 1159524; human cells with a luciferase reporter of 2A StopGo recoding; control for the full effect not named in the record; 1.2% of 410,000 active; Potency, µM (doses to about 57.9 µM), for inactives: top-dose signal change, negative = less light; active = well fitted falling curve with a large enough effect; inconclusive = small, poorly fitted or top-dose-only effect; inactive = no such curve, though single readings can be large or run the other way; tested in HEK293T cells; further: nearly all actives have a fitted effect of over 45% in size; luciferase light after 4 h
# * = called active by the depositor; ? = inconclusive; [ ] = another dose, or the depositor's remark. On the % scale 0 is the no-effect control and ±100 the full control effect; potency means the concentration at half of the fitted maximal effect. A portion of the library, so the mix of outcomes need not match the whole.
1) CCCNC(=O)c1cc(C2CCCCN2C(=O)c2ccccc2)on1 (stereo not drawn)
2) Cc1cccc(S(=O)(=O)N(C)C[C@@H]2OCc3cnnn3CCCC(=O)N([C@H](C)CO)C[C@H]2C)c1
3) CCCCn1nnnc1C(c1cc2ccccc2o1)N(Cc1ccccc1)Cc1ccccc1 (stereo not drawn)
4) CC(C)C[C@@H](CN)NC(=O)c1nc[nH]c1C(=O)N[C@@H](C)C(=O)CNC[C@H](CC(C)C)NC(=O)c1nc[nH]c1C(=O)N[C@@H](Cc1ccccc1)C(=O)O
5) Cn1cnc(S(=O)(=O)N2C[C@@H](O)COC[C@@H]3O[C@H](CC(=O)NC4CCC4)CC[C@H]32)c1
6) COc1ccc([C@H]2C[C@H](O)[C@@H](n3cc(C4CC4)nn3)CN2C(=O)C2CCCCC2)cc1
7) O=C(NC1CCCCC1)C(c1ccccc1)n1c(=O)c(-c2ccco2)nc2ccccc21 (stereo not drawn)
8) O=P(OC1=CCCCC1)(c1ccccc1)c1ccccc1
Assay by compound	1	2	3	4	5	6	7	8
RE007 growth inh	-0.5%	4.6%	-4.1%	-6.6%	3.0%	-12.0%	-3.3%	0.2%
StopGo reporter	-19.4%	-5.5%	-5.7%	-19.6%	-10.3%	-23.4%	-13.2%	5.1%

# Quoted from the listing.
# Under RE007 growth inh, CCCCn1nnnc1C(c1cc2ccccc2o1)N(Cc1ccccc1)Cc1ccccc1 (stereo not drawn) is entered as -4.1%
# Under StopGo reporter, Cn1cnc(S(=O)(=O)N2C[C@@H](O)COC[C@@H]3O[C@H](CC(=O)NC4CCC4)CC[C@H]32)c1 is entered as -10.3%
# Under StopGo reporter, O=C(NC1CCCCC1)C(c1ccccc1)n1c(=O)c(-c2ccco2)nc2ccccc21 (stereo not drawn) is entered as -13.2%
# Under RE007 growth inh, O=P(OC1=CCCCC1)(c1ccccc1)c1ccccc1 is entered as 0.2%

# (next part)
9) CC(C)(C)CC(=O)Nc1nc(C(N)Cc2ccc(C(F)(F)F)cc2)cs1 (stereo not drawn)
10) Cc1ccccc1C(=O)N1Cc2cnnn2-c2ccccc2C1C#N (stereo not drawn)
11) COc1cc2ccccc2cc1C(=O)N/N=C/c1cccs1
12) CCc1ccc(C(O)c2ncc(-c3ccc(C)cc3)[nH]2)cc1 (stereo not drawn)
13) CC(C)C#Cc1ccc2c(c1)O[C@@H](CN(C)S(=O)(=O)c1cn(C)cn1)[C@@H](C)CN([C@H](C)CO)S2(=O)=O
14) Cc1nnc(SC(C)C(=O)c2c[nH]c3ccccc23)n1C1CC1 (stereo not drawn)
15) CC1(c2nnc(-c3cccc(Cl)c3)o2)CC(c2ccc(Br)cc2)=NO1 (stereo not drawn)
16) CC(CSC(=O)c1ccccc1)C(=O)N1c2ccccc2CC1C(=O)O (stereo not drawn)
Assay by compound	9	10	11	12	13	14	15	16
RE007 growth inh	-17.5%	8.7%	-15.4%	?	3.1%	-2.3%	10.8%	3.5%[18.4 µM]
StopGo reporter	-28.5%	-14.0%	18.8%	24.8%	1.0%	0.0%	-17.9%	5.1%

17) CC(C)NC(=O)C1(C)CCCN1C(=O)c1cc(C#N)cs1 (stereo not drawn)
18) COc1ccc(-n2nc3c(c2NC(=O)c2ccccc2)CS(=O)(=O)C3)cc1
19) O=C(COC(=O)c1cncc(Br)c1)Nc1ccc(S(=O)(=O)N2CCOCC2)cc1
20) CCOC(=O)C1=C(C)N=c2sc(=Cc3ccc(OCC(=O)O)cc3)c(=O)n2C1c1ccc(Cl)cc1 (stereo not drawn)
21) Cc1cc(=O)n2[nH]c(Nc3cccc(Cl)c3)nc2n1
22) O=[N+]([O-])c1nccn1CCCCCCCCCCCN1CCOCC1
23) Nc1ncnc(N)c1NC(=O)c1cc(Cl)c(OCc2ccccc2)c(Cl)c1
24) O=C([C@@H]1CCCN1C1=NS(=O)(=O)c2ccccc21)N1CCN(c2ccccc2)CC1
Assay by compound	17	18	19	20	21	22	23	24
RE007 growth inh	3.7%[18.4 µM]	0.8%	-3.6%	-17.7%	-24.0%	-17.1%	5.8%	5.6%
StopGo reporter	-10.5%	-21.2%	-17.6%	?	24.4%	0.0%	-15.8%	50.6%[activator]

25) COc1ccc2[nH]c(=O)c(CN(C(C)=O)c3cc(C)ccc3C)cc2c1
26) CC1C(c2ccccc2)OCCN1C=NC#N (stereo not drawn)
27) Cc1noc(C)c1-c1ccc(C(=O)NCCc2ccccc2)c2occc12
28) Cc1ccc(CC(C)(O)CC(C)(O)Cc2ccc(C)cc2)cc1 (stereo not drawn)
29) COc1ccc(/C=N/NC(=O)c2sccc2C)c2ccccc12
30) CCCCn1c(SCC(=O)NC2CC2)nc2cc(C(=O)OC)ccc2c1=O
31) CC1(C(=O)NCc2ccc(C(F)(F)F)cc2)CCN1Cc1c(F)cccc1F (stereo not drawn)
32) CCCCCCCCN1[C@@H](CC(=O)O)c2cc(C(F)(F)F)ccc2S1(=O)=O
Assay by compound	25	26	27	28	29	30	31	32
RE007 growth inh	3.4%	-0.1%	1.0%	11.9%	3.1%	-0.2%	-7.5%	-18.4%
StopGo reporter	-20.9%	-6.9%	32.7%[activator]	-13.4%	35.5%[activator]	-27.9%	-19.4%	-8.9%

# Profiles as entered above.
# CC1(C(=O)NCc2ccc(C(F)(F)F)cc2)CCN1Cc1c(F)cccc1F (stereo not drawn) is entered as RE007 growth inh = -7.5%; StopGo reporter = -19.4%
# CC1C(c2ccccc2)OCCN1C=NC#N (stereo not drawn) is entered as RE007 growth inh = -0.1%; StopGo reporter = -6.9%
# COc1ccc(/C=N/NC(=O)c2sccc2C)c2ccccc12 is entered as RE007 growth inh = 3.1%; StopGo reporter = 35.5%[activator]

# Other results
33) CN1CCN(c2ncnc3c2ncn3[C@H]2CN(C)C[C@@H](CO)O2)CC1
34) NC(=O)c1cccc(-c2coc3c(C(=O)NCCc4ccccc4)cccc23)c1
35) COCC(=O)N1C[C@H]2CON(C)[C@H]2C[C@H]1c1cccc(-c2ccccc2)c1
36) CSCCC(NC(=O)c1ccccc1Cl)C(=O)NCCOc1ccc(C)cc1 (stereo not drawn)
37) COC(=O)C[C@@H]1C=C[C@@H](NS(=O)(=O)c2cccc(OC)c2)[C@@H](CO)O1
38) CCC(=O)N(C)C[C@@H]1Oc2ncc(Br)cc2C(=O)N([C@H](C)CO)C[C@H]1C
39) C=CC[C@@H](CC(=O)N[C@H](CO)Cc1ccccc1)C(=O)N[C@H](COC(=O)[C@H](CC=C)CC(=O)OC(C)(C)C)Cc1c[nH]c2ccccc12
40) O=C(CSc1ncn[nH]1)Nc1nc2c(F)c(F)c(F)cc2s1
Assay by compound	33	34	35	36	37	38	39	40
RE007 growth inh	-8.8%	2.3%	-4.1%	-3.4%	12.7%	14.8%	6.1%	-3.3%
StopGo reporter	-19.3%	10.7%	-14.6%	-0.5%	-13.3%	-5.8%	?	0.0%

41) O=C(Nc1nnc([C@H]2C[C@H](O)[C@@H](CO)O2)s1)Nc1ccccc1F
42) CCCCNC(=O)Cn1nnc(-c2ccccc2)c1COc1ccc(C(C)=O)cc1
43) CC(C)(C)CNC(=O)C1(C)CCN1C(=O)Cc1ccc(C(C)(C)C)cc1 (stereo not drawn)
44) CC(=O)Nc1cncc(-c2cccc(C(=O)NC3CC3)c2)n1
45) CC(=O)Nc1cc(-c2cccc(F)c2)cn2c(-c3ccc(S(C)(=O)=O)cc3)cnc12
46) C[C@H](NC(=O)[C@@H]1CCCN1C(=O)[C@@H]1CCCN1C(=O)c1cccc2ccccc12)c1ccccc1
47) CC1(C)CC(=O)C=C(c2ccc(-c3cnc4ccccc4c3)cc2)C1=O
48) CC1=C(C(=O)N(C)C)CC(CC(=O)NCCCN(C)C)C(=O)N1CCC1=CCCCC1 (stereo not drawn)
Assay by compound	41	42	43	44	45	46	47	48
RE007 growth inh	-1.4%[18.4 µM]	0.6%	6.2%	-10.9%[18.4 µM]	3.5%[18.4 µM]	-7.7%	3.5%	8.5%
StopGo reporter	36.4%[activator]	0.2%	?	-1.9%	-11.1%	-17.3%	-36.3%	0.0%

# Reprinted at random: three records from the list
48) CC1=C(C(=O)N(C)C)CC(CC(=O)NCCCN(C)C)C(=O)N1CCC1=CCCCC1 (stereo not drawn)
47) CC1(C)CC(=O)C=C(c2ccc(-c3cnc4ccccc4c3)cc2)C1=O
44) CC(=O)Nc1cncc(-c2cccc(C(=O)NC3CC3)c2)n1
Assay by compound	48	47	44
RE007 growth inh	8.5%	3.5%	-10.9%[18.4 µM]
StopGo reporter	0.0%	-36.3%	-1.9%

# By substructure: those above with two or more sulfur atoms
13) CC(C)C#Cc1ccc2c(c1)O[C@@H](CN(C)S(=O)(=O)c1cn(C)cn1)[C@@H](C)CN([C@H](C)CO)S2(=O)=O
40) O=C(CSc1ncn[nH]1)Nc1nc2c(F)c(F)c(F)cc2s1
Assay by compound	13	40
RE007 growth inh	3.1%	-3.3%
StopGo reporter	1.0%	0.0%

# Later entries.
49) COC(=O)C1=C(C(=O)OC)[C@@H]2N(C)c3ccccc3[C@@]23C[C@@H](CO)N(C(=O)c2cccs2)C3=N1
50) CCc1nc2ccc(C(=O)Nc3cc(-c4ccccc4)ccc3OC)cn2c1N(C)CCCc1ccccc1
51) Cc1ccc(S(=O)(=O)n2cccc2/C=C/[N+](=O)[O-])cc1
52) COc1ccc(-n2nnnc2C(c2ccccc2OC(F)(F)F)N2CCC(n3c(=O)[nH]c4ccccc43)CC2)cc1 (stereo not drawn)
53) CN1CC(c2ccccc2)Oc2ccccc2C1=S (stereo not drawn)
54) O=C1CNC(=O)c2cc(Cl)ccc2N1
55) Cc1cccc(C)c1Nc1cn[nH]c1
56) COc1ccc(OC)c(NC(=O)Nc2nc(CN)cs2)c1
Assay by compound	49	50	51	52	53	54	55	56
RE007 growth inh	10.2%	-11.7%	-8.8%	-1.4%	1.8%	10.8%	3.1%	0.3%
StopGo reporter	3.1%	-19.6%	15.8µM*	?	-23.3%	-13.4%	-7.6%	-4.8%

57) COCCCn1cc(CN2CC(N3CCN(Cc4ccccc4F)CC3)CS2(=O)=O)nn1 (stereo not drawn)
58) CCCCCCN1C[C@@H](O)[C@H](n2cc(C3CC3)nn2)C[C@@H]1c1ccccc1
59) COc1ccc2c(c1)CCC(=O)[C@H](O)C[C@H](c1ccccc1)OC2=O
60) CCOc1ccc2nc(NC(=O)c3cccc(N4C(=O)CCC4=O)c3)sc2c1
61) Fc1ccc(CNc2ccn3nc(-c4ccccc4)cc3n2)cc1
62) CC1(Cc2cc(Cl)ccc2C(F)(F)F)C(=O)Nc2c(Cl)cccc21 (stereo not drawn)
63) COc1ccccc1-c1cc(NC(C)=O)c2ncc(-c3ccc(S(C)(=O)=O)cc3)n2c1
64) CCNC(=O)C1CCCN(C(=O)c2cnc3ccccc3n2)CC1 (stereo not drawn)
Assay by compound	57	58	59	60	61	62	63	64
RE007 growth inh	3.1%	-0.3%	1.6%	2.8%	?	-4.6%	4.9%[18.4 µM]	-9.5%
StopGo reporter	-11.6%	?	-9.7%	1.5%	23.3%	?	-11.8%	-12.2%

65) CC(=O)Nc1ccc(CN(C)c2c(C)nc3ccc(C(=O)NCCc4ccccn4)cn23)cc1
66) CC1(C(=O)NS(=O)(=O)c2ccc(Cl)cc2)CCN1C(=O)c1ccccc1 (stereo not drawn)
67) CCCCN1CC(N2CCN(CCN(C)C)CC2)CS1(=O)=O (stereo not drawn)
68) COc1ccc(-c2cc(NC=O)c3ncc(-c4cccc(C(F)(F)F)c4)n3c2)cc1OC
69) COCCN(C(=O)COC(=O)CCCc1c[nH]c2ccccc12)c1c(N)n(Cc2ccccc2)c(=O)[nH]c1=O
70) C#Cc1cccc(Nc2nc(NC(C)C)nc3ccsc23)c1
71) CC[C@H]1C(=O)[C@@H](Cc2ccccc2)[C@@H]2CCN3C(=O)CCC[C@H]1[C@H]23
72) CCN(CC(=O)Nc1c(F)cccc1F)C(=O)c1cccn1C
73) CC(CCN1CCC(CN2C(=S)NCC2Cc2ccccc2)CC1)c1ccccc1 (stereo not drawn)
74) CCCCCCN1C[C@@H](n2cc(COC(=O)c3ccccc3)nn2)[C@H](O)C[C@@H]1c1ccccc1
75) O=C(NC1CCCCC1)C(c1ccnc2ccccc12)n1c(=O)c(-c2cc3ccccc3[nH]2)nc2ccccc21 (stereo not drawn)
Assay by compound	65	66	67	68	69	70	71	72	73	74	75
RE007 growth inh	-27.5%	10.8%	2.3%	1.8%[18.4 µM]	16.9%	?	1.7%	21.1%	-24.0%	-2.8%	0.4%
StopGo reporter	-15.8%	-1.8%	-17.4%	-20.0%	-16.1%	?	-21.7%	-3.8%	-24.6%	-22.3%	-4.2%
